# Screening results as filed in PubChem BioAssay.
# RanGTP-Impb inh = inhibitors of RanGTP-importin-beta interaction, primary screen, biochemical, FRET, CFP-Ran, YFP-importin-beta, homogeneous; Ran GTPase (GTP-bound) - importin-beta complex; cell-free CFP-Ran/YFP-importin-beta FRET ratio; AID 2216, 2009; inhibition, % (no concentration beside the values); 300,000 tested, 1.1% active;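 active = most replicates above 15%; inconclusive = exactly half above 15%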;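 note: 0% = DMSO wells and 100% = Ran loaded with GDP instead of GTP; wells of about 40 µL received 100 nL stock; the first replicate is given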
# Calb FLC = C. albicans growth inhibition with fluconazole, primary screen, CaCi-2 strain, Alamar Blue fluorescence; growth inhibition, % (no concentration beside the values); AID 1979, 2009; 300,000 tested, 0.57% active; C. albicans CaCi-2 (fluconazole-resistant clinical isolate) + fluconazole, 48 h;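 active = most replicates above 75%; inconclusive = exactly half above 75%; inactive = most below 75%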;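 note: all wells also contain fluconazole at 8 µg/ml as a sub-toxic cotreatment; 0% = median of DMSO wells and 100% = median of geldanamycin control wells; wells of about 8 µL received 7.5 nL stock; the first replicate is given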
# Bfl-1 A1 inh = caspase 3/7 activation in MEF A1-2A-BIM cells, primary screen, A1 inhibitor project, cell-based, luminescence, HTS; caspase activation, % (concentration not given with the values); Caspase-Glo 3/7 luminescence, 3 h; percent of clofoctol response, vehicle zero; 330,000 tested, 0.066% active;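 active = over half of replicate activation scores above 10%, or exactly half above 10 with the replicate mean above 10; inconclusive = replicate mean below 10 yet half the replicates above 10; inactive = over half of replicates below 10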;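 note: wells of about 30 µL received 50 nL stock; many hits fall short of the cut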
# AF4-AF9 inh = inhibitors of AF4 peptide binding to AF9, primary screen, biochemical, AlphaScreen, biotin-AF4 peptide, FLAG-AF9, single point. Protein AF-9 (Homo sapiens), P42568. inhibition, % at 10 µM. 350,000 tested, 0.47% active. AID 651704, 2012;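 active = every replicate reaching a set inhibition limit, whatever the replicate mean, cut at about 25% in these data; inconclusive = mean inhibition reaches that limit but some replicates miss it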;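 note: 0% = plate neutral control median and 100% = total signal loss; the record names both 10 and 1 µM as test concentration; the first replicate is given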
# Target sequence (P42568 whole entry, looked up): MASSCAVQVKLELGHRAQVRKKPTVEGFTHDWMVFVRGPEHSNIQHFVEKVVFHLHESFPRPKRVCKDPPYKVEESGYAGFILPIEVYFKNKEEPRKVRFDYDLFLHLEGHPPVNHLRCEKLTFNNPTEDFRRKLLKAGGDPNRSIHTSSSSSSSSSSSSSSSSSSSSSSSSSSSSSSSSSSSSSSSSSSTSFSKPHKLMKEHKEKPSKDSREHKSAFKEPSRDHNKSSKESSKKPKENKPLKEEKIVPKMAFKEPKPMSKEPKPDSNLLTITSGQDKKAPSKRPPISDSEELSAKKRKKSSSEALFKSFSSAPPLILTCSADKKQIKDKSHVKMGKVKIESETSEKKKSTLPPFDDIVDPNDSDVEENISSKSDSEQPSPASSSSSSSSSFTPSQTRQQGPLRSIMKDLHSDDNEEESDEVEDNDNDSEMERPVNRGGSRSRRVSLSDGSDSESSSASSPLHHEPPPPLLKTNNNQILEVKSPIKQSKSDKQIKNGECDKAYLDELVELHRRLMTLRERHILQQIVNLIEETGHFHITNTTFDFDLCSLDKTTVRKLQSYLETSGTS
# Beta apoptosis = inhibitors of cytokine-induced beta cell apoptosis, primary screen, luminescence; 300,000 tested, 0.8% active; AID 435005, 2010; protection from apoptosis, % (no concentration beside the values); INS-1E cytokine-induced death, ATP luminescence, 48 h; percent of positive-control rescue, neutral wells zero;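 active = all replicates at 75% or more, or half of them and the mean; inconclusive = half reach 75% but not the mean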;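 note: 0% = cytokine-treated negative control wells and 100% = positive control rescue; higher means more ATP so stronger rescue from cytokine killing; wells of about 40 µL received 100 nL stock; the first replicate is given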
# Vif TR-FRET = inhibitors of Vif binding to APOBEC3G peptide, primary screen, biochemical, TR-FRET, GST-Vif 1-94, biotin-A3G peptide, dose response retest (AID 1117319); one-dose inhibition, %; IC50 in µM for titrated hits; Virion infectivity factor (Human immunodeficiency virus type 1 group M subtype B (isolate …; 260,000 tested, 0.57% active; TR-FRET GST-Vif / biotin-A3G peptide binding; higher % means a stronger effect; test concentration not given here; strong numbers were not always called active;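 active = above the screen mean plus three standard deviations and confirmed in dose response; inconclusive = results disagree or hit not tested in dose response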;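 note: Vif residues 1-94 fused to GST binding biotinylated APOBEC3G peptide 110-148; 0% = full assay without inhibitor and 100% = GST in place of GST-Vif; retest series ran down from 100 µM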
# Ecoli rRNA inh = reduced GFP signal of wild-type E. coli, primary screen, bacterial rRNA inhibitor project, GFP/RFP fluorescence, OD600, single point | E. coli WT GFP vs humanized-ribosome RFP mutants, 24 h; stronger effect = lower value; DMSO median 0, no signal -100 | GFP signal change (wild-type ribosome), % (concentration not given with the values) | 350,000 tested, 1.6% active;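 active = significant combined selectivity score with lowered wild-type GFP, culture density cut under 30%, mutant RFP and density less affected; inactive = any of these conditions unmet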; note: one replicate is shown; some compounds called inactive have numbers as strong as hits
# T cruzi inh = inhibitors of intracellular T. cruzi growth, primary screen, luminescence, NIH3T3 host cells; T. cruzi beta-gal in NIH3T3, 90 h; inhibition, % (test concentration not listed); 300,000 tested, 1.4% active; AID 1885, 2009;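 active = mean inhibition across valid replicates above about 55%, limit read from the data; inconclusive = mean below that limit but half or more replicates reach it; inactive = mean below it, under half of replicates reach it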;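 note: signal also drops with host cell toxicity which is not excluded here; 0% = plate median of DMSO wells and 100% = zero luminescence signal; higher percent means less beta-gal luminescence so fewer parasites; stock transfer was 50 nL into about 50 µL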
# Ecoli rRNA inh OD600 = also measured in Ecoli rRNA inh; calls as there; OD600 change, %; measured here: OD600 growth;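 optical density of the mix in the first replicate; 0 = DMSO median and -100 = no signal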
# Ecoli rRNA inh RFP = second read-out of Ecoli rRNA inh, no call of its own (marks repeat the call); RFP signal change, %; measured here: RFP humanized mutant strains;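 first replicate; 0 = DMSO median and -100 = no signal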
# * hit, by the source's call; ? = inconclusive; · = no result given; & = joins results of further samples.
SMILES,RanGTP-Impb inh,Calb FLC,Bfl-1 A1 inh,AF4-AF9 inh,Beta apoptosis,Vif TR-FRET,Ecoli rRNA inh,Ecoli rRNA inh OD600,Ecoli rRNA inh RFP,T cruzi inh
Cc1ccc(-n2nnc3c(=O)n(CC(N)=O)cnc32)cc1,-0.2,8,-0.2,-5.3,3,-9%,2,14,1.0,0
Cc1cccc(N2CC(C(=O)Nc3ccc(S(=O)(=O)N4CCCCC4)cc3)CC2=O)c1C (stereo not given),5.5,-4,-0.1,-2.5,6,·,-7,-22,1.2,5
CC(NC(=O)CN1CCC(C(N)=O)CC1)c1ccccc1 (stereo not given),4.0,9,1.3,·,-2,-5%,·,·,·,-5
COC(=O)[C@@]12CCCCN1[C@H](c1ccc(-c3ccc(F)cc3)cc1)[C@H]1C(=O)N(C)C(=O)[C@H]12,·,·,0.2,-4.0,-6,·,14,-5,2.5,·
Cc1cc(C(=O)C(=O)N(C)C)c(C)n1-c1ccc(Cl)c(Cl)c1,?,10,-0.4,6.7,-3,·,-21,-29,-6.2,29
CCOC(=O)c1cccnc1SC(CC)C(=O)N1CCOCC1 (stereo not given),0.8,-6,0.5,·,3,-1%,·,·,·,-9
CN1CCN(C(CNS(=O)(=O)c2ccc(Cl)cc2)c2cccnc2)CC1 (stereo not given),-0.3,1,-0.4,·,-7,33%,·,·,·,44
CCCCCC(=O)c1c(C)[nH]c(C(=O)OCC)c1C,0.4,29,-0.4,·,-1,-9%,·,·,·,21
O=C(Nc1cccc(F)c1)N1CCC(n2c(=O)[nH]c3ccccc32)CC1,2.1,-7,0.2,0.3,-3,?,-7,-1,5.7,3
CCOc1ccc(/C=N/NC(=O)c2cc3c(OC)cc(OC)cc3[nH]2)cc1OC,-0.5,20,1.1,2.3,5,·,-26,-31,0.3,19
CCN(c1ccccc1)S(=O)(=O)c1ccc(Cl)c(NC(=O)COC(=O)c2ccc[n+]([O-])c2)c1,4.7,?,-0.2,-0.8,-11,0%,-16,-11,9.3,-3
COc1cc(/C=N/NS(=O)(=O)c2ccccc2)c(OC)c(OC)c1,0.0,5,0.1,-2.7,-1,-3%,3,-1,-0.7,-7
Cc1cc(C)c(S(=O)(=O)NCc2cccnc2)cc1C,2.7,5,0.0,-2.7,-5,-2%,10,3,-1.4,-7
CC(C)C(C)NC(=O)CN1C(=O)NC2(CCc3ccccc3C2)C1=O (stereo not given),5.5,-7,0.3,-5.5,4,12%,9,12,1.6,4
CCn1c(=O)cc(OCC(=O)N2CCN(c3ccc(F)cc3)CC2)c2ccccc21,5.1,5,0.0,0.9,2,1%,9,2,0.9,13
CN1CCN(Cc2cn[nH]c2-c2ccc(F)cc2F)[C@@H](c2ccccc2)C1,-1.1,-8,-0.2,-1.3,-5,·,4,-5,-0.9,16
CC(C)CCNC(=O)c1cccc(C(=O)NCCC(C)C)c1,2.5,·,-1.6,·,-10,0%,·,·,·,3
COc1cc(-c2nnc(CSc3nnc(Nc4ccc(C(C)C)cc4)s3)o2)cc(OC)c1OC,-3.6,3,-0.5,-2.1,17,·,-4,4,2.5,19
CS/C(=C\C(=O)c1ccco1)Nc1ccccc1Cl,-3.6,4,0.2,6.7,1,·,0,-13,19,3
Cc1ccc(C(=O)N2CCCC(C(=O)c3ccc(Oc4ccccc4)cc3)C2)cn1 (stereo not given),0.2,2,-0.4,-5.1,2,-12%,-52,-76,-18,6
C/C(=N\NC(=O)Cn1nc(C)c([N+](=O)[O-])c1C)c1ccc(Cl)s1,2.8,9,-0.5,-1.1,-3,·,8,12,-0.4,13
COC(=O)c1ccc(OC(=O)C2CC(=O)N(c3ccc(C)cc3C)C2)cc1 (stereo not given),0.0,-17,-0.6,·,1,-2%,·,·,·,-1
COc1cccc(NC(=O)CSc2nnc3ccc(-c4ccncc4)nn23)c1,-1.8,-5,·,-1.3,·,0%,2,4,-1.6,1
C=CCN1C(=O)/C(=C/c2ccc(OCC(=O)O)cc2)S/C1=N/c1nccs1,2.5,?,0.5,4.0,0,·,·,·,·,-9
O=C(N/N=C/c1ccco1)c1cc(-c2cccc3ccccc23)n[nH]1,1.4,13,-0.8,·,-2,7%,·,·,·,1
CCOC(=O)C1C(=O)NC(N2CCOCC2)=NC1C(C)C (stereo not given),-0.1,-13,0.2,·,-13,7%,·,·,·,-12
Nc1nonc1-n1nnc(C(=O)N/N=C/c2c[nH]c3ccccc23)c1-c1ccccc1,5.4,0,0.8,0.7,1,·,-14,-5,3.6,-20
O=C(NCCC1CCCCN1S(=O)(=O)c1cccs1)C(=O)Nc1ccc(F)cc1F (stereo not given),1.4,7,0.2,-0.3,·,·,-17,-18,4.2,6
Cc1ccc(NC(=O)c2c(Cl)nc3ccccn23)cc1,5.7,-4,0.3,-4.5,-8,-3%,17,17,-3.8,11
CCOc1ccccc1C(=O)Nc1nccs1,5.1,-5,-0.2,·,-2,-2%,·,·,·,-21
CC(=Nc1ccccc1C)C1=C(O)CSC1=O,-1.3,13,0.5,-9.9,-3,20%,8,1,2.1,-2
CCOc1cc(C(=O)O)cc(Cl)c1OC,·,-2,-0.1,·,2,31%,·,·,·,·
Cc1csc(=O)n1CC(=O)OCC(=O)Nc1cc(Cl)ccc1[N+](=O)[O-],4.9,-7,-0.3,-2.0,·,9%,-2,9,-1.6,-2
COc1cc(NC(=O)c2ccc3c(c2)OCCO3)ccc1NC(=O)c1ccccc1Cl,-1.0,19,0.6,-1.3,1,7%,0,4,-3.9,11
COc1ccc(/C=N/N(C(C)=O)c2nc(-c3ccc(C)cc3)cs2)cc1,0.4,4,-0.1,·,5,5%,·,·,·,21
Fc1ccc(SCCc2ccccn2)cc1,-0.2&0.6,6&0,-1.7&-3.5,1.3&-1.0,-5,1%,5&16,3&7,-0.3&0.0,5&-7
CC(=O)Nc1nc2n(n1)C(c1ccccc1)C=C(c1ccccc1)N2 (stereo not given),-8.6,9,0.7,·,0,1%,·,·,·,-9
Cn1c(SCC(=O)c2ccc(O)c(O)c2)nnc1-c1cccs1,2.6,-9,0.1,0.4,-7,?,-9,-7,-2.4,-20
CCCCNC(=O)[C@H]1C[C@H]1[C@@H](O)[C@H](CO)NC(=O)[C@H](CC(C)C)NC(=O)OC(C)(C)C,-0.4,-1,0.0,·,-6,·,·,·,·,-14
CC(=O)N1CCn2c3c(c(=O)c4cc(C)ccc42)CCC31 (stereo not given),5.1,5,0.8,·,-1,?,·,·,·,4
O=S(=O)(NC1CCCCC1N1CCN(c2ccccc2F)CC1)c1ccccc1 (stereo not given),3.9,-41,0.0,5.6,8,-4%,-18,-25,-3.7,21
CC(NC(=O)c1ccc2c(=O)n3c(nc2c1)CCC3)c1ccc(S(N)(=O)=O)cc1 (stereo not given),-1.7,0,0.2,-0.5,-6,-6%,8,15,-1.6,-2
O=C(OCCN1CCCCC1)c1ccc(O)cc1,-0.1,-3,0.6,·,-4,7%,·,·,·,-1
CO[C@H]1O[C@H](CBr)[C@@H](OC(=O)c2ccccc2)[C@H](O)[C@H]1O,-2.6,0,1.3,-5.3,-13,·,5,4,1.6,-24
COc1ccc2c(Cl)c(C(=O)NN)sc2c1,4.8,10,-0.8,·,0,-5%,-4,-1,2.6,0
Cc1ccc(S(=O)(=O)Nc2ccc(N3CCCCC3)cc2)cc1,-1.4,-6,-0.7,14,20,·,-49,-77,-4.6,20
O=C(Oc1ccc(C(=S)N2CCC(O)CC2)cc1)c1ccc(Cl)cc1,7.9,17,0.6,-0.5,-6,9%,-3,3,1.0,-9
COc1ccc2nc3ccccc3nc2c1N,1.2,7,-4.7,?,-1,6µM*,-7,6,-5.1,-1
O=C(Nc1nc2ccc(S(=O)(=O)N3CCCC3)cc2s1)C1CCCCC1,-2.9,-2,0.0,·,7,0%,·,·,·,-3
CC(C)Cn1c(S(=O)(=O)O)nc2ccccc21,1.6,-5,2.1,-8.6,-1,·,8,3,-4.3,-7
O=C(Nc1cccc(Cl)c1)c1ccc(F)c(S(=O)(=O)NCc2ccc3c(c2)OCO3)c1,0.8,1,0.4,·,45,·,·,·,·,-4
O=C(/C=C/c1ccco1)NC(=S)N1CCCCC1,-4.8,5,-0.3,0.5,0,·,3,3,2.7,-3
CNC(=O)c1ccc(-c2ccc(Cl)c(Cl)c2)s1,0.4,55,-0.5,·,-3,-1%,·,·,·,-1
Cc1ccn(CC(=O)N2CCCC(N3CCN(c4ccc(F)cc4)CC3)C2)n1 (stereo not given),0.1,3,·,-3.1,·,·,5,7,-0.7,-3
CCCn1c(=S)[nH]c2ccccc2c1=O,0.6,-26,0.4,-1.2,-2,-8%,15,3,-0.9,-17
CCOC(=O)N1CCN(C(=O)CN(C)S(=O)(=O)c2ccc(Cl)cc2)CC1,2.8,11,-0.6,-14,-2,·,2,2,1.7,-14
Cc1ccc(NC(=O)C2C3CCCC2C3c2ccccc2)cc1 (stereo not given),-4.9,-4,0.3,·,·,·,·,·,·,5
CNS(=O)(=O)c1cccc(C(=O)OCC(=O)N2CCCC2)c1,-2.6,-14,-0.2,0.5,·,·,7,11,-3.0,-14
CCc1nc2cc(C)nn2c2nc3ccccc3n12,2.2,1,0.5,·,3,8%,·,·,·,-7
Cc1onc(-c2c(F)cccc2Cl)c1C(=O)Nc1nnc(-c2ccccc2)s1,2.7,27,0.4,·,8,-20%,·,·,·,5

# Next part
SMILES,RanGTP-Impb inh,Calb FLC,Bfl-1 A1 inh,AF4-AF9 inh,Beta apoptosis,Vif TR-FRET,Ecoli rRNA inh,Ecoli rRNA inh OD600,Ecoli rRNA inh RFP,T cruzi inh
O=C(CCc1nc2ccccc2c(=O)[nH]1)NCc1ccccn1,-4.9,11,0.5,-0.6,3,0%,14,16,1.0,4
CN(C)C(=O)C(NC(=O)c1ccccc1)=C(Cl)Cl,·,-25,-1.2,-2.3,-5,-8%,10,7,1.6,-5
COCCN=C1N[C@@H](c2ccccc2)C(C(=O)OC)=C(C)N1Cc1ccccc1,-0.4,-4,-0.2,-7.0,-1,·,11,5,0.8,26
Cc1cc(=O)oc2cc(Oc3ncccc3[N+](=O)[O-])ccc12,2.9,-5,-0.8,-2.2,1,·,10,5,0.2,-23

# Not all compounds are listed (hit frequency here may not be typical).
